MT1-MMP act inh: blockers of MT1-MMP proenzyme processing, primary screen, HT1080 RFP-PRO-GFP cells, GFP/RFP fluorescence | GFP/RFP ratio fluorescence, overnight; percent of plate control window, DMSO zero | 0.061% of 360,000 active | GFP/RFP ratio change, % at 20 µM | AID 651647, 2012 | Matrix metalloproteinase-14 (Homo sapiens), P50281;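 active = GFP/RFP ratio change of at least 30% with cell ATP level not reduced by more than half and red fluorescence within 50% of control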; also: strong numbers were not always called active
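Assay system: HT1080 RFP-PRO-GFP cells | Dosing: 20 µM single dose, 1% DMSO | Incubation: Cells overnight before dosing, compound overnight, 37 °C, 5% CO2 | Evaluation: GFP/RFP fluorescence ratio | Control set: DMSO-only wells and HT1080 RFP-L50D-GFP cell wells as references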
Rce1 inh: yeast Rce1p protease inhibitors, primary screen, biochemical, fluorescence, cell-free homogeneous; yeast membranes, quenched prenylated peptide cleavage fluorescence; CAAX prenyl protease 2 (Saccharomyces cerevisiae (strain ATCC 204508 / S288c)), Q03530; AID 2563, 2010; 0.27% of 290,000 active; calls only;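 active = fall in fluorescence gain of 50% or more versus controls, with final raw signal at or below 3038400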;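 also: plate controls were neutral control wells for no effect and wells lacking membranes for full effect; tested at 10 µM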
CSC inhib: cancer stem cell viability inhibitors, primary screen, luminescence; cancer stem cell-like cells viability; 1.1% of 300,000 active; AID 2717, 2010; inhibition, % at 7.5 µM;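 active = mean at 75% or more and at least half the replicates too; tested in HMLE shEcad cells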;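 also: 0% = median of negative and 100% = median of positive control wells; the first replicate is given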
HIV Env fusion: inhibitors of HIV-1 Env-driven cell-cell fusion, primary screen, HeLa-JRFL effector, CEM21 target cells, luciferase. inhibition, % at 12.3 µM. 1.1% of 360,000 active. AID 651610, 2012;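 active = mean replicate inhibition score of at least 50 and every replicate individually at or above 50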;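 also: 0% = plate neutral controls and 100% = maraviroc near 300 nM; one replicate is shown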
PABP FP inh: PABP poly(A) RNA binding inhibitors, primary screen, biochemical, fluorescence polarization, uHTS; Polyadenylate-binding protein 1 (Homo sapiens), P11940; inhibition, % at 35 µM; 1% of 290,000 active; AID 2014, 2009;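 active = 50% or more with normal probe brightness, or confirmed in later tests; about a fifth of its hits are not listed in these tables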;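 also: calls also rest on retests at 20 µM and on dose response follow-up; controls were probe without protein and protein plus probe with vehicle; some compounds called inactive have numbers as strong as hits; many hits fall short of the cut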
Target sequence (P11940 whole entry, looked up): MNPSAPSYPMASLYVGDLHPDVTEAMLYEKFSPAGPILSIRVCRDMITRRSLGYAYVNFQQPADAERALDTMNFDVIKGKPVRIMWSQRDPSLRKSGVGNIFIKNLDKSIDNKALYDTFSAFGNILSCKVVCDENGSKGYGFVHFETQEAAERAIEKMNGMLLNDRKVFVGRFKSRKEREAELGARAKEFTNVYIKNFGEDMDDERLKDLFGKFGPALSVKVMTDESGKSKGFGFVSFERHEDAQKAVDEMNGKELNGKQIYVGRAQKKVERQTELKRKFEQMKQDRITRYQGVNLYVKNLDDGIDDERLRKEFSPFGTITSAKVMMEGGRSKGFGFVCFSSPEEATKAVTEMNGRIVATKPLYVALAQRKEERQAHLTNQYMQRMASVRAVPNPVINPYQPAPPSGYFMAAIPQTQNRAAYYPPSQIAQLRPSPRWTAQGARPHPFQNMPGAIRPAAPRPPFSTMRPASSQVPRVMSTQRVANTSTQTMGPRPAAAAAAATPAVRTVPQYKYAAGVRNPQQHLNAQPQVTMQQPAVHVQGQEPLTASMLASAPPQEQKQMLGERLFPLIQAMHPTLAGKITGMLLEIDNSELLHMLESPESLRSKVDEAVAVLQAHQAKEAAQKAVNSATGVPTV
eIF4H FP inh: human eIF4H binding inhibitors, primary screen, translation initiation inhibitor project, biochemical, uHTS, fluorescence polarization; inhibition, % at 35 µM; eIF4H fluorescence polarization binding assay; Eukaryotic translation initiation factor 4H (Homo sapiens), Q15056; AID 2012, 2009; 0.94% of 290,000 active;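 active = 50% or more with normal probe brightness, or confirmed in later tests; about a fifth of its hits are not listed in these tables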;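 also: calls also rest on retests at 20 µM and on dose response follow-up; 0% = protein and probe with vehicle and 100% = probe without protein; strong numbers were not always called active; many hits fall short of the cut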
Yeast UUG start: modulators of yeast start codon fidelity, primary screen, whole organism, S. cerevisiae, single point, plate reader. S. cerevisiae UUG-firefly luciferase reporter, luminescence/redox ratio. activity score, % at 18.7 µM. 0.13% of 350,000 active. AID 602363, 2012;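 active = replicate mean at a twofold rise or more, about +100% in these data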;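 also: firefly luciferase made from a UUG start codon reports start codon fidelity; reporter light over untreated wells divided by growth signal over untreated wells; some hits fall short of that in this replicate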
eIF4H FP inh retest: second read-out of eIF4H FP inh, no call of its own (marks repeat the call); inhibition, %; compound at 20 µM; confirmation average;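 mean of two retest wells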
PABP FP inh retest: also measured in PABP FP inh; calls as there; inhibition, %; compound at 20 µM; confirmation repeats;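 mean of two retest wells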
MT1-MMP act inh RFP: recorded beside MT1-MMP act inh, whose call it bears; RFP signal change, %; measured here: RFP expression control read;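 0 = vehicle wells; hits needed this value within 50% of zero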
Numbers without * were called inactive; i = inactive; · = no result given. Compounds were not picked by outcome. Share with any hit: about 2.9%.

SMILES	MT1-MMP act inh	MT1-MMP act inh RFP	Rce1 inh	CSC inhib	HIV Env fusion	PABP FP inh	eIF4H FP inh	Yeast UUG start	others
Cc1ccc(C)c(NC(=O)NNC(=O)c2cc3ccccc3cc2O)c1	-15	2	i	11	-1	-12	45	-24
O=C(NC1CCCC1)C(c1ccc(Cl)cc1)N1CCN(C2CCCCC2)CC1 (configuration not stated)	-8	4	i	-13	-4	-2	-2	-11
COCc1cc(=O)[nH]c2cc(NC(=O)C(C)(C)CCl)c(C)cc12	-1	-1	i	1	-85	4	-2	-10
O=S(=O)(c1ccc(F)cc1)N1CCC(O)(c2ccc3c(c2)OCO3)CC1	0	4	i	0	·	-3	0	-15
COc1cccc(CNc2nc3nc4c(c(=O)n3[nH]2)CCC4)c1	2	4	i	-11	·	-6	-2	·
O=S(=O)(c1ccccc1)n1cc(-c2cccc3nccn23)c2ccccc21	-2	-14	·	·	18	·	·	-19
CC(=O)c1ccc(N2CCN(C3CCC(C(C)(C)C)CC3)CC2)cc1 (configuration not stated)	1	-2	i	41	17	6	-2	-4
Cc1ccccc1NC(=O)/C(C#N)=C/c1ccc(-c2ccc(Cl)c(C(=O)O)c2)o1	-3	1	i	·	-29	12	17	-14
Cc1ccn(-c2ccc(NC(=O)c3cccs3)cc2)n1	-1	-2	i	53	-112	13	3	-31
Cc1noc(C)c1S(=O)(=O)N1CCC(C(=O)N2CCN(c3ccccc3Cl)CC2)CC1	-6	-9	i	-15	·	4	-14	0
CCOc1cc2c3c(c1)C(C)CC(C)(C)N3C(=O)C2=O (configuration not stated)	5	-3	i	12	104*	1	-6	-16
COc1cc(/C=N/n2c(-c3ccccc3)n[nH]c2=S)cc(OC)c1O	1	0	i	-11	-5	-4	-6	4
CC(Sc1ncccn1)C(=O)Nc1ccc2c(c1)OCCO2 (configuration not stated)	7	8	·	·	3	·	·	-8
OCC1(Cc2ccccc2)CCN(Cc2cnn(-c3ccccc3F)c2)CC1	1	1	i	-5	3	3	19	·
CCOc1ccc(N(C)S(=O)(=O)c2ccc(C)c(C(=O)OCC(=O)c3c[nH]c4ccccc34)c2)cc1	-20	-25	i	17	58*	0	-5	·
COc1ccc(C2=NN(C(=O)c3ccccc3)C(c3ccc(OC)c(OC)c3)C2)c(O)c1 (configuration not stated)	2	3	i	·	17	0	-12	-20
Cc1cc(NS(=O)(=O)c2ccc(NC(=O)C(c3ccccc3)c3ccccc3)cc2)no1	3	3	i	3	-69	9	-6	-12
CCOC(=O)c1c(NC(=O)CCl)sc(CN(C)C)c1-c1ccccc1	-6	0	i	-5	5	-2	0	·
O=C(Nc1nnc(C23CC4CC(CC(C4)C2)C3)s1)c1ccc(N2C(=O)CCC2=O)cc1	3	1	i	23	17	11	44	-19
Cc1ccc(-c2cc(C(=O)N/N=C/C=C/c3ccccc3)n[nH]2)o1	4	1	i	52	-17	0	6	·
Cc1ccc(NC(=O)CN2C(=O)N/C(=C/c3cc(C)n(-c4ccc(C(=O)O)cc4)c3C)C2=O)cc1	-4	5	·	·	8	-2	71	·	eIF4H FP inh retest=-4;PABP FP inh retest=-5
O=C1/C(=C/c2ccc(F)c(F)c2)CSc2sccc21	-4	-1	i	27	·	-2	-1	-6
CCN1CCN(C(=O)NC(c2ccc(C)c(F)c2)C(Cl)Cl)CC1 (configuration not stated)	1	6	i	11	5	6	6	-10
CC1N(C(=O)N(C)C)CCN1S(=O)(=O)c1ccccc1 (configuration not stated)	0	-4	i	-4	-6	4	0	-4
[O-]/C(=C(\C(=S)Nc1ccccc1F)[n+]1ccccc1)c1ccc(-c2ccccc2)cc1	2	-1	i	·	-32	-5	-5	-29
Cc1cc(C)cc(N=C(NO)c2cccc([N+](=O)[O-])c2)c1	4	9	i	2	·	-8	-6	-6
NCC(=O)NNC(=O)OCC1c2ccccc2-c2ccccc21	-2	-2	i	-7	-25	7	1	-12
CCOc1ccc(NC(=O)CN(C)C(=O)c2csc3c2CCCC3)cc1OCC	2	-3	·	·	2	·	·	-5
CCN(CC)c1ccc(C(=O)OCC(=O)c2ccco2)cc1	2	-1	i	13	-141	-1	5	-13
CNc1cc(CSC)nc(SCc2ccc(Cl)cc2Cl)n1	-1	-10	i	27	·	2	3	·

Among those listed so far, 5 contain an NH in an aromatic ring:
SMILES	MT1-MMP act inh	MT1-MMP act inh RFP	Rce1 inh	CSC inhib	HIV Env fusion	PABP FP inh	eIF4H FP inh	Yeast UUG start	others
COCc1cc(=O)[nH]c2cc(NC(=O)C(C)(C)CCl)c(C)cc12	-1	-1	i	1	-85	4	-2	-10
COc1cccc(CNc2nc3nc4c(c(=O)n3[nH]2)CCC4)c1	2	4	i	-11	·	-6	-2	·
COc1cc(/C=N/n2c(-c3ccccc3)n[nH]c2=S)cc(OC)c1O	1	0	i	-11	-5	-4	-6	4
CCOc1ccc(N(C)S(=O)(=O)c2ccc(C)c(C(=O)OCC(=O)c3c[nH]c4ccccc34)c2)cc1	-20	-25	i	17	58*	0	-5	·
Cc1ccc(-c2cc(C(=O)N/N=C/C=C/c3ccccc3)n[nH]2)o1	4	1	i	52	-17	0	6	·

(continued)
SMILES	MT1-MMP act inh	MT1-MMP act inh RFP	Rce1 inh	CSC inhib	HIV Env fusion	PABP FP inh	eIF4H FP inh	Yeast UUG start	others
CCSc1nc2sc3c(c2c2[n+]1CC(CBr)O2)CCCC3 (configuration not stated)	2	2	i	-15	-2	-10	-2	2
CC(C)CC(=O)N1CCN(Cc2cccc(Cl)c2)CC1	0	5	i	-2	7	-4	8	-7
COc1ccc(NC(=O)C2(C)CCN2Cc2ccccc2Cl)cc1OC (configuration not stated)	-1	-11	·	·	8	·	·	-13
COc1ccc(N(C(=O)c2cnccn2)C(C(=O)NC2CCCCC2)c2cc(OC)c(OC)c(OC)c2)cc1 (configuration not stated)	2	5	i	-11	-6	-10	-12	·
Cc1[nH]nc2c1C1(CCN(C(=O)OCc3ccccc3)CC1)C(C#N)=C(N)O2	6	6	i	-13	·	-9	1	-10
Cc1ccc(OCC(=O)NC2CCCc3ccccc32)c(C)c1 (configuration not stated)	-4	-8	i	-4	6	-4	1	·
CC(=O)c1ccc(NC(=O)/C(=C\c2ccco2)NC(=O)c2ccco2)cc1	-3	0	·	-6	3	9	-6	-6
OCC1(Cc2cccc(F)c2)CCN(Cc2cccc3nccnc23)CC1	2	2	i	0	-3	-4	5	-7
O=C(CN1CCN(Cc2ccccc2F)C1=O)NC1CCCC1	-3	-1	i	4	-5	-8	-11	-21
Cn1c(CSc2ncccn2)nnc1SCC(=O)N1CCCc2ccccc21	6	6	·	-15	4	5	9	-23
CCCCNC(=O)COC(=O)c1ccccc1F	-2	-2	i	-9	4	-6	10	4
CCCCCN(C(=O)CCC(=O)OC(C)C(=O)c1ccccc1)c1c(N)n(CCCC)c(=O)[nH]c1=O (configuration not stated)	0	0	i	10	5	·	·	15
COc1ccc2nc(SCC(=O)Nc3cc(C)on3)[nH]c2c1	4	5	i	-6	8	-8	1	-11
Cn1nnnc1SCC(=O)Nc1ccc(S(=O)(=O)N2CCOCC2)cc1	1	2	·	-2	21	-10	-13	·
CCn1c(C)nc2cc(C(=O)NNS(=O)(=O)c3ccccc3F)ccc21	-1	3	i	0	·	-11	-10	-11
N#Cc1ccc(NCC(=O)N2CCN(S(=O)(=O)c3ccccc3)CC2)cc1	1	-4	·	·	4	·	·	-15
COCCCNC(=O)CC1C[C@H](C(=O)N2CCCCC2)[C@@]2(C)c3[nH]c4ccccc4c3CCN2C1=O (some centres not stated)	-5	-4	·	·	-3	·	·	0
COc1cc(-c2ccc3oc(-c4cccc(C)c4)c(C#CC4(O)CCCCC4)c3c2)cc(OC)c1OC	2	2	·	81*	3	·	·	4
COC(=O)c1ccc(COC(=O)C(CCSC)NC(=O)COc2ccccc2)cc1 (configuration not stated)	-3	1	i	-6	-11	-5	-7	0
COc1ccc2c(c1OC)C(=O)OC2Nc1nc(-c2cc3cc(Br)ccc3oc2=O)cs1 (configuration not stated)	5	-4	i	9	-139	15	5	-30
COCCn1c(SCC(=O)Nc2ccc(OC)c(S(N)(=O)=O)c2)nc2ccccc2c1=O	7	-1	i	-11	-10	·	·	-11
CCN(c1ccccc1)S(=O)(=O)c1ccc(C(=O)Nc2cccc(NC(C)=O)c2)cc1	3	-8	·	1	·	·	·	-13
CCCCN1Cc2ccccc2Oc2cc(Br)ccc2S1(=O)=O	1	-7	·	·	4	·	·	-14
CCN1C(=O)N[C@@H](c2ccccc2)[C@H](C(C)=O)[C@H]1C	-3	2	i	-3	-5	·	·	-5
C[C@]12C=CC(=O)C=C1CCC1C2CC[C@@]2(C)C1CCC21OCCO1 (some centres not stated)	0	-7	·	5	-4	·	·	1
NC(=O)COc1ccc(NC(=O)OCc2ccccc2)cc1	1	4	i	9	·	-1	-1	-7
CCN(CC)CCCNc1nc2cc(OC)c(OC)cc2c2nc(-c3ccccc3)nn12	-3	-8	i	14	-35	-7	-7	-7
Cc1ccc(C)c(-n2c(SCC(=O)N3CCC(C(=O)O)CC3)nnc2-c2cccc(Cl)c2)c1	0	2	i	-14	15	6	-1	·
NS(=O)(=O)c1ccc(NC(=O)c2ccc(CSc3ccccc3)o2)cc1	0	1	i	-12	9	-19	-11	-13
CC1CN(C(C)C)C(=S)N(c2ccccc2)C1=O (configuration not stated)	2	4	·	·	-10	·	·	-2
CCOc1ccc2c(c1)nc(SCC(=O)c1ccc(Br)s1)n2C	-11	-10	i	-15	-12	4	-10	-24
CCN(CC)C(=O)c1cccc(-c2csc(C(C)(O)c3ccccc3)n2)c1 (configuration not stated)	1	-19	·	·	37	·	·	-8
CCOC(=O)N1CCN(S(=O)(=O)c2c[nH]c(C(=O)OC)c2)CC1	-1	-1	i	5	2	13	-4	-1
CC1(C)CC(=O)C(C=NCCN2CCN(C3CC(=O)N(c4ccc(Cl)c(Cl)c4)C3=O)CC2)=C(O)C1 (configuration not stated)	-2	3	i	3	6	-3	-2	11
Cc1cc(C(=O)O)ccc1N=Cc1c(O)ccc2ccccc12	-2	-1	i	-10	0	3	-5	-61
Cc1ccccc1N1C(=O)C2ON(c3ccccc3)C(c3ccncc3)C2C1=O (configuration not stated)	1	5	i	-7	-50	-7	0	0
CCOC(=O)c1c(-c2ccccc2)oc2ccc(OCC(=O)NNC(=O)CCC(=O)O)cc12	0	2	i	-3	2	4	-6	-2
COc1ccccc1N(CC(=O)NCc1ccco1)S(C)(=O)=O	2	6	i	-9	-5	0	0	·
COc1cc2c(cc1OC)C(C)N(C(=O)c1cc3n(n1)C(C(F)(F)F)CC(c1ccco1)N3)CC2 (configuration not stated)	1	-3	i	-1	·	-11	25	3
COc1ccc(N2CCN(C(=S)Nc3ccc(OC)cc3OC)CC2)cc1	2	-1	i	-9	5	5	-10	-17
O=C(Nc1ccccc1F)c1cc(C(=O)Nc2ccccc2F)cc([N+](=O)[O-])c1	2	-2	i	-4	9	-3	-1	-16

Screens (PubChem)
